# From PubChem
# Cruzain inh Det – qHTS Assay for Promiscuous and Specific Inhibitors of Cruzain (with detergent). Cruzipain (Trypanosoma cruzi), P25779. purified cruzain, Z-FR-AMC fluorescence, 0.01% Triton. Potency, µM, inactives show max response, negative = inhibition, hits mostly inhibitors. 200,000 tested, 0.43% active. AID 1478, 2009;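 also: plate controls were neutral wells for no effect and buffer without enzyme for full effect; nearly all actives have a fitted effect of over 40% in size; top concentration of the series not given in the record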
# Target sequence (P25779 123-467 limits assumed): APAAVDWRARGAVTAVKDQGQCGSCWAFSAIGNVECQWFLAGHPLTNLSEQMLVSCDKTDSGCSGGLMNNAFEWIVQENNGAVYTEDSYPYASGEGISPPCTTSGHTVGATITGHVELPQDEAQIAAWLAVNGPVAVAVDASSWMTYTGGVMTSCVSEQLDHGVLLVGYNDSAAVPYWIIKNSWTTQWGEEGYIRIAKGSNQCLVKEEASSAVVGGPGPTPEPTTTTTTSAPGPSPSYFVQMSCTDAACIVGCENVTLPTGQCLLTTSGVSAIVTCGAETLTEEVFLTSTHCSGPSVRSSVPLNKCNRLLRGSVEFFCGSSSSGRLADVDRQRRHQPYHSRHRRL
#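 15 min RT preincubation of 1.5 nM cruzain with compound, then 2 uM Z-FR-AMC added; kinetic AMC fluorescence, 60 s delta. Triton X-100 0.01%, pH 5.5.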
# NS1 function inh – qHTS Assay for Inhibitors of Influenza NS1 Protein Function; S. cerevisiae slowed by influenza A NS1, growth recovery by OD600; Potency, µM (series often up to 46.1 µM), for inactives: at the highest dose activity, positive = more growth; 270,000 tested, 0.4% active; active means well fitted rising curve with a large enough effect; inconclusive means small, poorly fitted or top-dose-only effect; inactive means no such curve, though single readings can be large or run the other way; also: nearly all actives have a fitted effect of over 50% in size
#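 S. cerevisiae expressing influenza A NS1, grown in glucose, washed, then diluted 1:100 into pH 6.0 -URA galactose medium with 23 nl compound. Growth recovery read as OD600; NS1-free strain serves as control.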
# MARV entry inh – qHTS for inhibitors of binding or entry into cells for Marburg Virus. Marburg virus pseudotyped entry inhibition, cell reporter; control for the full effect not named in the record; about a third of the inactives were read at about 46 µM. Potency, µM (top dose mostly 37.8 µM), without a hit: at the highest dose activity change, negative = inhibition, usual class: inhibitors. 300,000 tested, 1.8% active. AID 540276, 2011; active = well fitted inhibition curve with a large enough effect; inconclusive = small, poorly fitted or top-dose-only effect, or effect the other way; inactive = flat fitted curve, though single readings scatter; tested in HEK293 cells; about a fifth of its hits are not listed in these tables; also: % is scaled to controls: 0 for no effect and ±100 for the full control effect; luciferase read-out
# RE007 growth inh – qHTS Assay for Inhibitors of the HIV-1 protein Vpr; S. pombe RE007 Vpr strain, BacTiter-Glo ATP luminescence, 24 h; control for the full effect not named in the record; Potency, µM (series often up to 92.2 µM), for the others: top-dose activity change, negative = less growth; 360,000 tested, 0.21% active; AID 651644, 2012; active = well fitted falling curve with a large enough effect; inconclusive = small, poorly fitted or top-dose-only effect; inactive = no such curve, though single readings can be large or run the other way;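 also: % is scaled to controls: 0 for no effect and ±100 for the full control effect; nearly all actives have a fitted effect of over 50% in size; the assay follows cell death caused by Vpr and the record does not say whether a fall means rescue or toxicity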
#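 Fission yeast RE007 carrying one integrated HIV-1 vpr copy, seeded at OD 0.01 in PMG+AL medium with 23 nL pinned compound. Grown 24 h at 30 degrees; viability read by BacTiter-Glo luminescence after 5 min.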
# 2A StopGo – High Throughput Screening for Foot and Mouth Disease Virus Antivirals | 410,000 tested, 1.2% active | Potency, µM (top dose mostly 57.9 µM), without a hit: at the top dose signal change, negative = less light | AID 1159524, 2015 | human cells with a luciferase reporter of 2A StopGo recoding; control for the full effect not named in the record; active = well fitted falling curve with a large enough effect; inconclusive = small, poorly fitted or top-dose-only effect; inactive = no such curve, though single readings can be large or run the other way; tested in HEK293T cells; also: % is scaled to controls: 0 for no effect and ±100 for the full control effect; nearly all actives have a fitted effect of over 45% in size; luciferase light after 4 h
# Lassa entry inh – qHTS for Inhibitors of binding or entry into cells for Lassa Virus | Lassa virus pseudotype entry inhibition, cell reporter; control for the full effect not named in the record | Potency, µM (titrated, usually from 37.9 µM), without a hit: at the highest dose activity change, negative = inhibition, most hits filed as inhibitors | 300,000 tested, 1.2% active | AID 540256, 2011; active means well fitted inhibition curve with a large enough effect; inconclusive means small, poorly fitted or top-dose-only effect, or effect the other way; inactive means flat fitted curve, though single readings scatter; tested in HEK293 cells; also: % is scaled to controls: 0 for no effect and ±100 for the full control effect; nearly all actives have a fitted effect of over 50% in size; luciferase read-out
# SARS PLP yeast – qHTS of Yeast-based Assay for SARS-CoV PLP | S. cerevisiae expressing SARS-CoV PLpro, growth rescue; control for the full effect not named in the record | Potency, µM (top dose mostly 32.9 µM), inactives show top-dose activity, positive = growth rescue | 330,000 tested, 0.19% active; active means well fitted rising curve with a large enough effect; inconclusive means small, poorly fitted or top-dose-only effect; inactive means no such curve, though single readings can be large or run the other way; also: 0% is about no effect; nearly all actives have a fitted effect of over 55% in size; growth read by luminescence after 48 h
# Cruzain noTriton – qHTS Assay for Promiscuous and Specific Inhibitors of Cruzain (without detergent); Cruzipain (Trypanosoma cruzi), P25779; purified cruzain, Z-FR-AMC fluorescence, no detergent; Potency, µM, for inactives: max response, negative = inhibition, hits mostly inhibitors; 200,000 tested, 2.3% active;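 also: plate controls were enzyme without inhibitor for no effect and buffer without enzyme for full effect; nearly all actives have a fitted effect of over 40% in size; top concentration of the series not given in the record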
#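 Detergent-free condition (0.00005% Triton X-100) in acetate buffer pH 5.5 with DTT. 1.5 nM enzyme and compound were pre-mixed 15 min, then 2 uM Z-FR-AMC substrate added; reaction progress from fluorescence change between first and third reads (60 s).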
# Active calls of the source: *; ? = inconclusive; nt = not tested or not shown; [ ] = another dose, or the depositor's remark. Unless noted, calls follow the shape of the dose curve; as a rule, active = well fitted curve in the direction sought with a large enough effect; inconclusive = small, poorly fitted or top-dose-only effect, or another doubt; inactive = no such curve, though single readings can be large; an effect the other way counts as inactive or inconclusive. Potency is read from the fitted curve at half-maximal effect.
SMILES,Cruzain inh Det,NS1 function inh,MARV entry inh,RE007 growth inh,2A StopGo,Lassa entry inh,SARS PLP yeast,Cruzain noTriton
CC1(C)C(c2ccccc2)=NC(c2ccc(F)cc2)N1O (stereo not drawn),2.6%,-4%,7%,-9%,-9%,-12%,5%,4%
COc1cc(Nc2nnc(C)s2)c(Cl)cc1Cl,-1.0%,-67%,3%[46.1 µM],2%,-13%,?,-11%,0%
COc1cc2c(cc1OC)CN(C(=O)c1ccccc1C(=O)O)CC2,8.1%,0%,-27%[46.1 µM],-7%,-3%,-12%,-1%,5%
CCCCOc1cccc(C(=O)NC(=S)Nc2cccnc2)c1,-6.7%,18%,?,nt,-4%,?,?,-12%
CCOC(=O)c1sc(=NC(=O)CCS(=O)(=O)c2ccccc2)n(C)c1C,nt,nt,12%[46.1 µM],5%,7%,-11%,0%,nt
OC(CN1C2=NCCCN2c2ccccc21)c1ccc(Br)cc1 (stereo not drawn),8.8%,1%,?,-22%,?,-9%,-1%,6%
CC(C)c1ccc(NC(=O)CSc2nnc(CN3CCOCC3)n2C)cc1,nt,6%,?,-18%,8%,nt,2%,nt
Cc1nc2c(=O)[nH]c(=S)n(C)c2nc1C,-6.3%,7%,5%,-27%,0%,19%,-1%,-12%
O=C(NCCCN1CCOCC1)c1ccc(S(=O)(=O)Nc2cccc(C(F)(F)F)c2)cc1,nt,nt,6%[46.1 µM],-2%,24%,-1%,2%,nt
Cn1c(NCCN2CCOCC2)nc2c1c(=O)n(Cc1cccc(Cl)c1)c(=O)n2C,7.2%,4%,-18%,9%,-21%,11%,0%,6%

# Reprinted from the part before: 4 entries, then new ones.
SMILES,Cruzain inh Det,NS1 function inh,MARV entry inh,RE007 growth inh,2A StopGo,Lassa entry inh,SARS PLP yeast,Cruzain noTriton
CC(C)c1ccc(NC(=O)CSc2nnc(CN3CCOCC3)n2C)cc1,nt,6%,?,-18%,8%,nt,2%,nt
Cc1nc2c(=O)[nH]c(=S)n(C)c2nc1C,-6.3%,7%,5%,-27%,0%,19%,-1%,-12%
O=C(NCCCN1CCOCC1)c1ccc(S(=O)(=O)Nc2cccc(C(F)(F)F)c2)cc1,nt,nt,6%[46.1 µM],-2%,24%,-1%,2%,nt
Cn1c(NCCN2CCOCC2)nc2c1c(=O)n(Cc1cccc(Cl)c1)c(=O)n2C,7.2%,4%,-18%,9%,-21%,11%,0%,6%
COc1cccc(C(c2nnnn2CS(=O)(=O)c2ccc(C)cc2)N2CCN(C)CC2)c1OC (stereo not drawn),1.3%,-1%,-7%,-12%,-13%,-4%,6%,-2%
CCCCOC(=O)c1ccccc1C(=O)OCc1ccccc1,8.2%,nt,nt,-12%,12%,nt,1%,9%
Clc1cccc(-c2nnc(-c3ccccc3)o2)c1,-1.1%,-37%,?,20µM*,-12%,?,-10%,-1%
COC(=O)c1ccc(NC(=O)CSc2nc(=O)n(Cc3ccco3)c3c2CCC3)cc1,-22%,nt,nt,nt,?,-20%[46.1 µM],nt,-13%
COc1ccc(Cc2nnc3sc(SCC(=O)Nc4ccccc4)nn3c2=O)cc1OC,nt,nt,?,?,-8%,-19%,3%,nt
O=C(Nc1cccc(Br)c1)c1ccn[nH]1,-2.1%,-173%,8%,-3%[3.69 µM],37%[activator],0%,-36%,-9%
CC1(C)CC(=O)C(C2NCCc3ccccc32)=C(O)C1 (stereo not drawn),5.6%,11%,-1%,-8%,-3%,25%,-7%,-3%
CC(=O)Nc1ccc(S(=O)(=O)Nc2cccc3[nH]ncc23)cc1,nt,nt,?,2%,-2%,-27%,1%,nt
O=C(NC1CCCCCCC1)c1cccnc1,nt,-9%,19%,6%,33%[activator],28%,2%,nt
COc1ccc(C(=O)NCc2nnc(SCC(=O)N3CCCC3)o2)cc1,nt,7%,-4%[46.1 µM],6%,-9%,8%[46.1 µM],-1%,nt
CCOC(=O)C1(Cc2cccc(Cl)c2)CCCN(C2CCN(C(C)=O)CC2)C1 (stereo not drawn),nt,-4%,9%[46.1 µM],1%,-10%,24%,2%,nt
C/C(=N\Nc1cc(C)nc(NCc2ccccc2)n1)c1ccc([N+](=O)[O-])cc1,nt,-7%,nt,-4%,?,nt,0%,nt
NS(=O)(=O)c1ccc(-c2cccc(/C=C3\SC(=O)NC3=O)c2)cc1,nt,6%,nt,-2%,-22%,nt,1%,nt
CC/C(=N/Nc1ccccc1)c1cnnc(SC)n1,1.1%,-15%,?,13%,3%,?,1%,-8%
Cc1oc2c(CN3CCC(C)CC3)c(O)ccc2c(=O)c1-c1ccccc1,nt,-1%,2%,11%,?,nt,0%,nt
FC(F)c1nc2ccccc2[nH]1,nt,6%,1%[46.1 µM],9%,-9%,8%,1%,nt
O=C(CCn1c(=O)[nH]c2ccccc2c1=O)NCCCN1CCN(c2cccc(Cl)c2)CC1,-5.0%,-2%,?,-4%,-12%,6%,-10%,-1%
CCOC(=O)c1c(CN2CCOCC2)n(-c2ccccc2)c2cc(Br)c(OC)cc12,-1.2%,-2%,?,9%,-27%,9.2µM*,5%,?
CC(C)(C)OC(=O)N1CCCN(C(=O)Nc2ccc(C(F)(F)F)cc2)CC1,nt,-3%,?,8%,6%,5%[46.1 µM],0%,nt
CC1(c2ccc3c(c2)OCO3)NC(=O)N(CC(=O)Nc2ccccc2)C1=O (stereo not drawn),nt,nt,5%,8%,-16%,20%,-12%,nt
CCN(C(=O)CSc1nc2cc(C(=O)O)ccc2c(=O)n1Cc1ccccc1)c1ccccc1,nt,21%,nt,7%,-24%,nt,-1%,nt
COc1cc(OC)c(OC)cc1/C=C/C(=O)c1ccc(NS(=O)(=O)c2ccc(C)cc2)cc1,-4.0%,?,?,nt,-13%,?,-13%,20µM*
Cc1cc(C)cc(C(=O)OCC(=O)NC2CCCC2)c1,nt,-12%,nt,-1%,-7%,nt,-1%,nt
COc1ccc(CN2CCN(C(=O)c3ccc(S(=O)(=O)N4CCCCCC4)cc3)CC2)cc1F,nt,nt,?,5%,14µM*,?,0%,nt
Cc1nn(C(=O)Cn2ccc([N+](=O)[O-])n2)c(C)c1Cl,nt,3%,30%,3%,-17%,?,-3%,nt
CCOC(=O)Cc1csc(NC(=O)CSc2nc(N)c3c(C)c(C)sc3n2)n1,-8.4%,14%,?,3%,?,4%,15%,12%
COc1cc2c(cc1OC)C(c1ccc(Cl)cc1)N(c1ccc(C)c(F)c1)C(=O)C2 (stereo not drawn),-11%,nt,-21%[46.1 µM],nt,?,?,nt,?
CC(C)c1nc2ccccc2n1CCC(=O)O,2.7%,3%,4%,1%,nt,1%,3%,12%
C(=NOCCc1ccccc1)c1ccncc1,nt,nt,20%,4%,70%[activator],0%,nt,nt
Cc1ccc(NC(=O)C2CCN(S(=O)(=O)c3cnc[nH]3)CC2)nc1,-1.6%,10%,-14%[46.1 µM],1%,-21%,-12%,4%,4%
CCC(Cc1ccccc1)NCc1c(C(=O)O)c(C)n(Cc2ccccc2)c1C (stereo not drawn),nt,nt,?,5%,-8%,-29%[46.1 µM],6%,nt
O=S(=O)(c1ccc2c(c1)OCCO2)N(Cc1ccc(F)cc1)Cc1nnc(-c2cccs2)o1,1.3%,-31%,3%[46.1 µM],21%,-8%,4%,-1%,11%
CN(CC(=O)Nc1ccc(Cl)c(C(F)(F)F)c1)C(=O)c1cccs1,nt,nt,?,19%,-23%,?,2%,nt
COc1cc(OC)cc(C(=O)O/N=C(\N)c2cccc(C)c2)c1,nt,-7%,nt,-16%,25%,nt,0%,nt
Cc1ccc(-c2nn(-c3ccc(F)cc3F)c3c2cnc2ccc(F)cc23)cc1,-0.5%,nt,nt,nt,?,-16%[46.1 µM],nt,-7%
COc1ccc(-n2nnc3c(=O)n(CC(=O)Nc4cc(C)on4)cnc32)cc1OC,nt,5%,14%[46.1 µM],-6%,-12%,-13%[46.1 µM],-1%,nt
CCc1ccccc1NC(=O)CSc1nc2ccccc2nc1Cc1cccc(OC)c1,0.8%,nt,nt,nt,-8%,-16%[46.1 µM],nt,-11%
Cc1cc(C(=O)C(=O)O)c(C)n1-c1ccc(Cl)cc1,nt,-1%,-7%[46.1 µM],-9%,0%,19%[46.1 µM],1%,nt
Cc1ccc(C(=O)NCC(=O)NCC(c2ccco2)N2CCCCC2)cc1C (stereo not drawn),nt,nt,4%,-12%,-9%,11%,3%,nt
Cc1ccc(-c2nnn3c2nc(NC2CCC(C)CC2)c2ccccc23)cc1 (stereo not drawn),0.6%,nt,25%[46.1 µM],nt,22%,14%[46.1 µM],nt,3%

# Entries of single compounds, quoted from the list. Screens in order: Cruzain inh Det, NS1 function inh, MARV entry inh, RE007 growth inh, 2A StopGo, Lassa entry inh, SARS PLP yeast, Cruzain noTriton
# `Cc1ccc(C(=O)NCC(=O)NCC(c2ccco2)N2CCCCC2)cc1C` (stereo not drawn) reads nt, nt, 4%, -12%, -9%, 11%, 3%, nt
# `COc1cc(OC)cc(C(=O)O/N=C(\N)c2cccc(C)c2)c1` reads nt, -7%, nt, -16%, 25%, nt, 0%, nt

# (more compounds)
SMILES,Cruzain inh Det,NS1 function inh,MARV entry inh,RE007 growth inh,2A StopGo,Lassa entry inh,SARS PLP yeast,Cruzain noTriton
O=C(Nc1ccc(Oc2ccc(NC(=O)c3ccco3)c(NC(=O)c3ccco3)c2)cc1)c1ccco1,-3.6%,8.9µM*,?,1%,nt,9%,-2%,-13%
Cc1ccccc1C(=O)c1c[nH]c(C(=O)NCc2ccco2)c1,-4.7%,11%,1%[46.1 µM],18%,0%,?,-11%,-5%
COc1ccc(/C=C/C(=O)NCCCNC(=O)/C=C/c2ccc(OC)c(OC)c2)cc1OC,nt,nt,4%[46.1 µM],5%,3%,8%[46.1 µM],nt,nt
Cc1nn(-c2ccccc2)c2c1cc1c(=O)n(C)c(=O)nc-1n2-c1cccc(Cl)c1,-2.2%,nt,-5%[46.1 µM],nt,-14%,11%[46.1 µM],nt,1%
